# Screening data (PubChem)
# HSV replic up: HSV replication enhancement; maximum fold increase; 220,000 compounds, 0.005% hits; HSV replication augmentation in cells, fold increase;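 active = peak rise of 1.5-fold or more in the series; tested in PC3 cells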;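 also: first round at 10 µM; read as green reporter fluorescence; hits show the peak of a series up to 25 µM; 1 = signal of infected wells without compound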
# HSV replic up primary fold: second read-out of HSV replic up, no call of its own (marks repeat the call); fold increase; compound at 10 µM; measured here: primary screen fold increase 10 uM; tested in PC3 cells;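 GFP signal in the first replicate; 1 = infected wells without compound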
# Numbers without * were called inactive; i = inactive. Not all compounds are listed; count on the stated rates, not on these rows.
HSV replic up primary fold,HSV replic up,Structure
0.93,i,COc1cc2oc3cc(C#Cc4ccc(N)cc4)ccc3c(=O)c2cc1OC
0.99,i,COc1ccc(-c2nnc3ccc(SCC(=O)N4CCOCC4)nn23)cc1
0.61,i,COCc1c(C(C)C)nc(C(C)C)c(/C=C/[C@@H](O)C[C@@H](O)CC(=O)O)c1-c1ccc(F)cc1
0.67,i,C/C=C1\COC(C(=O)NCCN2CCCC2)(C(F)(F)F)C=C1C=C1CCCCC1 (stereo unspecified)
0.85,i,COc1ccc(C#Cc2c(-c3ccsc3)oc3ccc(N4CCOCC4)cc23)cc1
0.65,i,O=C(NCc1nc2ccccc2[nH]1)C1=C[C@H](C2CCCCC2)C[C@H](OCCCCO)O1
0.98,i,O=C(COC(=O)c1cccs1)NCc1ccco1
0.98,i,Nc1ccccc1C#Cc1cnccn1
1.07,i,CN1C[C@H](C(=O)NC2(C)OC3(O)[C@@H]4CCCN4C(=O)[C@H](Cc4ccccc4)N3C2=O)CC2c3cccc4[nH]cc(c34)C[C@H]21 (stereo partly specified)
0.79,i,COC(=O)C[C@H]1c2cc(C(F)(F)F)ccc2S(=O)(=O)N1C(C)(C)C
0.88,i,Cc1csc(NC(C)c2nc3cc(Cl)c(Cl)cc3n2CCCO)n1 (stereo unspecified)
0.84,i,C#CCNC(=O)C1=C[C@@H](c2ccc3c(c2)OCO3)C[C@@H](OCc2ccc(CO)cc2)O1
0.9,i,CCOc1ccc(-c2nnc3ccc(SCC(=O)N4CCCCC4)nn23)cc1
0.52,i,C[C@@H]1[C@@H](Sc2ccccc2)CC(=O)O[C@@H]1c1ccc(-c2ccccc2)cc1
0.92,i,OCCOCCn1c(C(CO)Nc2nc(-c3ccccc3Br)cs2)nc2ccccc21 (stereo unspecified)
0.69,i,CC(C)=CCC12Oc3cc(O)ccc3C1(O)Oc1cc3c(c(O)c1C2=O)C=CC(C)(C)O3 (stereo unspecified)
1.02,i,COC(=O)[C@@H]1CCCN1C(=O)[C@@H](NC(=O)OC(C)(C)C)C(C)C
0.82,i,O=C(Nc1ccccc1)C1=C[C@@H](c2ccc3c(c2)OCO3)C[C@@H](OCCCCO)O1
0.94,i,O=C(OCCN1CCOCC1)C1(c2ccccc2)CCCCC1
0.94,i,Cc1ccc(Cn2c(CCNc3nc(-c4ccc(Cl)c([N+](=O)[O-])c4)cs3)nc3cc(Cl)c(Cl)cc32)cc1

# Single records, as listed above.
# Nc1ccccc1C#Cc1cnccn1 is listed with HSV replic up primary fold = 0.98; HSV replic up = i
# O=C(COC(=O)c1cccs1)NCc1ccco1 is listed with HSV replic up primary fold = 0.98; HSV replic up = i

# Carrying on:
HSV replic up primary fold,HSV replic up,Structure
1.01,i,Nc1ccc(C(=O)O)cc1
0.93,i,O=c1[nH]ccc2c(O)cccc12
0.74,i,Cc1ccc(Cn2c(C(CO)Nc3nc(-c4ccc(F)cc4)cs3)nc3ccccc32)cc1 (stereo unspecified)
0.82,i,CCOC(=O)C(CCSC)Nc1nc(Cl)nc(Nc2ccc(Cl)cc2)n1 (stereo unspecified)
0.84,i,COc1ccc(-c2csc(NC(C)c3nc4cc(C(F)(F)F)ccc4n3CCOCCO)n2)cc1 (stereo unspecified)
0.93,i,Cc1csc2ncc(C(=O)Nc3ccc4c(c3)OCCO4)c(=O)n12
0.9,i,C#CCNC(=O)C1=C[C@H](C)C[C@H](OCc2ccc(CO)cc2)O1
1.02,i,COC(=O)CCC(=O)OC1(C)C(=O)C2=CN(Cc3ccco3)C(c3ccc(OC)cc3)=CC2=C(Br)C1=O (stereo unspecified)
0.93,i,O=C1Nc2ccccc2C1=O
0.89,i,Clc1ccc2nsnc2c1NC1=NCCN1
0.9,i,CCOC(=O)[C@@H]1[C@H]2COc3ccccc3[C@@H]2N2C(=O)N(c3ccc(F)cc3)C(=O)[C@]12C
0.76,i,COC(=O)C1=C(C(=O)OC)[C@@H]2Nc3ccccc3[C@@]23C[C@@H](C(=O)OC)N(C(=O)c2cc(C)oc2C)C3=N1
0.77,i,O=C(NC1CC1)C1=C[C@H](c2coc3ccccc3c2=O)C[C@H](OCc2ccc(CO)cc2)O1
0.95,i,c1ccc(C2=NOC(c3nnc(-c4ccccc4)o3)C2)cc1 (stereo unspecified)
0.81,i,CC(C)C[C@H](NC(=O)[C@@H](O)[C@H](N)Cc1ccccc1)C(=O)O
1.01,i,O=C(NCc1ccc(OC(F)(F)F)cc1)c1cc(-c2ccccc2)nn1CC1CC(c2cccnc2)=NO1 (stereo unspecified)
0.65,i,CC1CCN=C(N)S1 (stereo unspecified)
0.71,i,COc1cccc(SCc2noc(C(=O)NCCN(C)C)c2C(=O)NCCN(C)C)c1
0.96,i,CC1CC(=O)Nc2ccccc2N1C(=O)Nc1ccc(F)cc1 (stereo unspecified)
1.01,i,COC(=O)C1=C[C@@H](C(=O)OC)[C@@H]2C3=C(C(=O)C2(C)C)[C@H](c2ccccc2)[C@@H]2C(=O)N(C)C(=O)[C@@H]2[C@@H]3C1

# 2 entries from above, with tabs.
canonical_smiles	HSV replic up primary fold	HSV replic up
COc1cccc(SCc2noc(C(=O)NCCN(C)C)c2C(=O)NCCN(C)C)c1	0.71	i
CC1CC(=O)Nc2ccccc2N1C(=O)Nc1ccc(F)cc1 (stereo unspecified)	0.96	i

# Following part:
HSV replic up primary fold,HSV replic up,Structure
0.96,i,Cc1ccc(NC(=O)NC2=N/C(=C(/C#N)C(=O)N3CCCC3)c3ccccc32)cc1
1.13,i,CC1(OC(=O)c2ccco2)C(=O)C=C2C=C(C3CC3)OC=C2C1=O (stereo unspecified)
0.89,i,O=C(O)C1=C[C@@H](C2CC2)C[C@@H](OCCCCO)O1
0.69,i,CC1(c2nnc(-c3ccncc3)o2)CC(c2cccnc2)=NO1 (stereo unspecified)
0.81,i,COc1ccc(C2=NOC(C3(S(=O)(=O)c4ccccc4)CC(O)C3)C2)cc1 (stereo unspecified)
0.73,i,CCOC(=O)c1ccc(NC(=S)Nc2ccccc2N)cc1
0.77,i,CCOC(=O)c1cccc(NC(=O)c2ccc(F)cc2F)c1
0.93,i,CCOC(=O)C1Nc2c(cc(C(F)(F)F)cc2[N+](=O)[O-])C2c3ccccc3CC12 (stereo unspecified)
0.78,i,CC(C)(C)NCC(O)COc1cccc2[nH]c(=O)[nH]c12 (stereo unspecified)
0.81,i,O=C(CN1C(=O)NC2(CCc3ccccc32)C1=O)Nc1cc(C(F)(F)F)ccc1N1CCOCC1 (stereo unspecified)
0.85,i,CC#CCN1c2ccccc2[C@]23C[C@@H](C(=O)OC)N(C(=O)c4ccc(Br)cc4)C2=NC(C(=O)OC)=C(C(=O)OC)[C@H]13
0.94,i,O=C(NCc1ccc(OC(F)(F)F)cc1)c1ccc2c(c1)S(=O)(=O)c1ccccc1C2=O
0.91,i,COC(=O)C1=C(COc2ccccc2)NC(=O)NC1c1ccc2ccccc2c1 (stereo unspecified)
0.8,i,C[C@]12C(=O)N(c3ccc(Cl)cc3)C(=O)N1[C@@H]1c3ccccc3OC[C@@H]1[C@H]2c1ccccc1
0.98,i,CCOc1ccc2nc(NC(=O)CSc3nc4c(c(=O)n(C)c(=O)n4C)n3CC)sc2c1
0.87,i,CC1(c2nnc(-c3cccc(Cl)c3)o2)CC(c2cccnc2)=NO1 (stereo unspecified)
0.93,i,CC(=O)OCC(=O)NCCCOc1cccc(CN2CCCCC2)c1
0.93,i,CC(=O)Oc1cc(O)c2c(=O)c(OC(C)=O)c(-c3ccc(OC(C)=O)c(OC(C)=O)c3)oc2c1
0.79,i,CC(C)(C)[C@H]1C=C(C(=O)NCc2ccccc2)O[C@@H](OCCCCO)C1
0.99,i,COc1ccc(C2CC(=O)c3c(O)cc(O)cc3O2)c(CC=C(C)C)c1OC (stereo unspecified)

# More compounds
HSV replic up primary fold,HSV replic up,Structure
0.93,i,NC(=O)C1=C[C@@H](c2ccccc2)C[C@@H](OCCCCO)O1
0.8,i,C[C@H](NC(CCc1ccccc1)C(=O)O)C(=O)N1CCC[C@H]1C(=O)O (stereo partly specified)
0.92,i,CNC(C)C#Cc1ccc2c(=O)c3cc(C)c(C)cc3oc2c1 (stereo unspecified)
1.05,i,CCCC[C@@H]1CN=C(N)N1CCCC
0.92,i,COc1ccc([C@H]2/C=C\CN(S(C)(=O)=O)[C@@H](C)C(=O)N2Cc2ccc(F)cc2)cc1
0.74,i,C=C1CCN([C@@H](CC(C)C)C(=O)NCc2cc(OC)c(OC)c(OC)c2)S(=O)(=O)c2ccccc21
0.86,i,CC(C)(C)OC(=O)NCCCC1=CC2=CC(=O)C(C)(OC(=O)c3ccc(Cl)nc3)C(=O)C2=CO1 (stereo unspecified)
0.94,i,O=C(O)C[C@H]1c2cc(F)ccc2S(=O)(=O)N1C1CCCCC1
1.05,i,O=C1OCCN1c1c(-c2ccccc2)c(N2CCOCC2)nc2ccccc12
1.04,i,C[C@@H]1CCC[C@@]2(O[C@@H](CCO)C[C@H](O)[C@H]2O)O1
0.96,i,CCOC(=O)c1ccc(NC(=S)Nc2ccc(Br)cc2N)cc1
1,i,C#CCNC(=O)C1=C[C@H](c2ccc3c(c2)OCO3)C[C@H](OCCCCO)O1
0.75,i,COC(=O)C1=C[C@@H](C(=O)OC)C2C3=C(C(=O)C24CCCCC4)[C@H](C)n2c(=O)n(C)c(=O)n2[C@@H]3C1 (stereo partly specified)
0.86,i,CC(C)(C)C1=C(C#N)C(c2cc3c(cc2Br)OCO3)C(C#N)=C(N)O1 (stereo unspecified)
0.73,i,CC1=C[C@@H](C)[C@@H](c2ccccc2)OC1=O
0.9,i,COc1cc2c3c([nH]c2cc1F)C(=O)NCC3
1.08,i,CC(C)(C)CN1C(=O)C(=O)NC[C@@H]1CCCCN
0.87,i,CCOC(=O)N1CCN(Cc2nc3c(c(=O)n(C)c(=O)n3C)n2Cc2cccc3ccccc23)CC1
0.93,i,COc1c(O)cccc1[C@H](O)C1CCN(CCc2ccc(F)cc2)CC1
1.1,i,Cc1ccc(CNC(=O)c2cc(-c3ccccc3)nn2CC2CC(c3cccnc3)=NO2)cc1 (stereo unspecified)

# Another view of 3 compounds above.
Compound | HSV replic up primary fold | HSV replic up
C#CCNC(=O)C1=C[C@H](c2ccc3c(c2)OCO3)C[C@H](OCCCCO)O1 | 1 | i
COC(=O)C1=C[C@@H](C(=O)OC)C2C3=C(C(=O)C24CCCCC4)[C@H](C)n2c(=O)n(C)c(=O)n2[C@@H]3C1 (stereo partly specified) | 0.75 | i
CC(C)(C)C1=C(C#N)C(c2cc3c(cc2Br)OCO3)C(C#N)=C(N)O1 (stereo unspecified) | 0.86 | i

# Two of the compounds above, comma-delimited.
mol,HSV replic up primary fold,HSV replic up
CC(=O)Oc1cc(O)c2c(=O)c(OC(C)=O)c(-c3ccc(OC(C)=O)c(OC(C)=O)c3)oc2c1,0.93,i
CC(C)(C)[C@H]1C=C(C(=O)NCc2ccccc2)O[C@@H](OCCCCO)C1,0.79,i

# Next part
HSV replic up primary fold,HSV replic up,Structure
0.71,i,COc1ccc(C[C@H](C)NC[C@@H](O)c2ccc(O)c(NC=O)c2)cc1
1.03,i,O=C(NCc1cccc(Br)c1)C1CC(c2ccc(C(F)(F)F)cc2)=NO1 (stereo unspecified)
1.03,i,CCO[C@H]1OC(C(=O)O)=C[C@@H](c2cn(C(C)=O)c3ccccc23)[C@@H]1CCCO
1.01,i,COC(C[C@@H](O)C[C@@H](O)[C@H](C)OCc1ccccc1)OC
0.9,i,FC(F)(F)c1ccccc1C1=CC(c2ccccc2)n2ncnc2N1 (stereo unspecified)
0.97,i,CCN1C(=O)N[C@H](c2ccccc2)C(C(C)=O)=C1C
0.83,i,O=[N+]([O-])c1cc(-c2csc(NCCc3nc4cc(Cl)c(N5CCCCC5)cc4n3CCCO)n2)ccc1Cl
0.91,i,CCCCCCCCN1[C@@H](CC(=O)OCC)c2cc(F)ccc2S1(=O)=O
0.72,i,CCCCN1C(N)=NC[C@@H]1C(C)O (stereo partly specified)
1,i,CCCCCN(CCCCC)C(=O)C(CCC(=O)O)NC(=O)c1ccc(Cl)c(Cl)c1 (stereo unspecified)
0.92,i,COC(=O)CCC(=O)OC1(C)C(=O)C2=CN(c3ccc(OC)cc3)C(c3ccc(OC)cc3)=CC2=C(Br)C1=O (stereo unspecified)
0.92,i,COC/C=C/C1=CC2=CC(=O)C(C)(OC(=O)c3cnc4ccccc4n3)C(=O)C2=CN1CC(C)C (stereo unspecified)
1.01,i,CC1=C(N2CCOCC2)CCC1=O
1.08,i,CC1(c2nnc(-c3cccc(Cl)c3)o2)CC(c2ccc(F)cc2)=NO1 (stereo unspecified)
0.88,i,CC(=O)[C@@H]1[C@@H](C)N(Cc2ccccc2)C(=O)N[C@H]1c1ccccc1
0.82,i,CCOC(=O)C1Nc2ccc(C(F)(F)F)cc2C2C=CCC12 (stereo unspecified)
0.79,i,COc1ccc2c(c1)c(CCNNC(=O)C(C)(C)C)c(C)n2C(=O)c1ccc(Cl)cc1
1.08,i,CCC(C)[C@H]1CN=C(N)N1CC1CCCCC1 (stereo partly specified)
0.83,i,CC1(c2nnc(-c3cccc(Cl)c3)o2)CC(c2ccc(C#N)cc2)=NO1 (stereo unspecified)
1.03,i,CC(C)n1c(SCc2cc(=O)[nH]c3ccccc23)nc2c1c(=O)n(C)c(=O)n2C

# The list goes on.
HSV replic up primary fold,HSV replic up,Structure
0.91,i,O=S1(=O)CCOC[C@H](Cc2ccccc2)N1Cc1cccc(Cl)c1
0.87,i,CCOc1cc(-n2cnnn2)c(OCC)cc1NC(=O)c1cnccn1
0.9,i,CCC[C@@H]1CCCO[C@@](C(=O)NCc2ccc(S(C)(=O)=O)cc2)(C(F)(F)F)C1
1.04,i,CCOC(=O)C[C@H]1c2ccccc2S(=O)(=O)N1Cc1ccc(Cl)cc1
0.92,i,CCN1C(=O)/C(=C/N2CCc3ccccc3C2)SC1=S
